Measles inh – inhibitors of measles virus growth in infected cells; infected Vero cells, GFP fluorescence, 64 h; active compounds read low; z-score (no concentration beside the values); 33,000 compounds, 0.1% hits;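 active = z-score under -3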;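 also: score is relative to mean and SD of the compound wells of a plate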
The depositor's hits bear a star. The list is partial; the hit share may differ from the screen's.

SMILES | Measles inh
CCOC(=O)CSc1ccc(C(=O)N2CCN(c3ccccn3)CC2)cc1[N+](=O)[O-] | 1
Cc1ccc(-c2ccc(O)cc2)o1 | -0.6
CC(NC(=O)c1cc(=O)[nH]c2ccccc12)c1ccccc1 (stereo not drawn) | 0.45
O=C(NCc1ccc2c(c1)OCO2)c1ccc(Cn2c(=S)[nH]c3ccsc3c2=O)cc1 | 1.1
Cc1sc2ncn(CC(=O)NC(C)c3ccccc3)c(=O)c2c1C (stereo not drawn) | -0.4
Cc1ccccc1OCC(=O)OCC(=O)c1ccccc1 | 1.3
COc1ccc(S(=O)(=O)N2CCCC2C(=O)Nc2ccc(S(=O)(=O)Nc3cc(C)on3)cc2)cc1 (stereo not drawn) | -0.68
O=c1c2ccccc2nc(-c2ccc(Cl)cc2)n1CCOCCOc1ccccc1F | -0.01
C=C(C)Cn1c(SCCC)nc2sc3c(c2c1=O)CC(C)(C)OC3 | -0.24
CC(C)CCn1c(SCc2cccc(F)c2)nc2ccsc2c1=O | 0.89
Cc1ccc(C(=O)Cn2c3ccccc3n3nc(-c4ccccc4)nc23)cc1 | -0.52
COc1ccc(-c2cc(C(=O)Nc3ccc(Br)c4cccnc34)c3ccccc3n2)cc1 | -1.8
CCCn1nnnc1NCc1ccc2c(c1)OCO2 | 1.1
Cc1ccccc1CNC(=O)c1ccc(C2SCC(=O)N2Cc2ccccc2)cc1 (stereo not drawn) | 0.09
CCCNC(=O)Cn1cnc2sc(C(=O)NCc3cccnc3)c(C)c2c1=O | -0.69
O=C(Nc1ncccn1)c1c(O)c2cccc3c2n(c1=O)CCC3 | -1.1
CN1C(=O)N(C)C2(c3ccccc3)NN3C(=O)CSC3=NC12c1ccccc1 (stereo not drawn) | 1.8
CCC(CO)NCC(O)Cn1c(C)c(C)c2ccccc21 (stereo not drawn) | -0.05
CC(=O)c1ccc(NC(=NS(=O)(=O)c2ccc(Br)cc2)c2ccccc2)cc1 | -0.26
CCN(CC)CCSc1nc2ccc(OC)cc2[nH]1 | 2.2
O=C(NC1CCCC1)c1cnn2c(C(F)(F)F)cc(-c3cccs3)nc12 | -0.97
COC(=O)c1ccc(NC(=O)c2ccc(OC)cc2)cc1 | -0.61
N#CCSc1nc2ccc(N3CCCCC3)cc2c(=O)n1Cc1ccccc1 | -0.64
Cn1c(=O)c(-c2ccccc2N)nc2cc3ccccc3cc21 | -0.08
COc1ccc(C2Nc3ccccc3C(=O)N2Cc2ccccc2)cc1COc1ccccn1 (stereo not drawn) | -0.12
O=C(c1cc(-c2ccccn2)nc2ccc(S(=O)(=O)N3CCOCC3)cc12)N1CCN(c2cccc(Cl)c2)CC1 | 0.3
CCOC(=O)C(C)(C)NS(=O)(=O)c1c(C)cc(C)cc1C | -0.43
COc1ccc(CCNC(=O)c2cc(S(=O)(=O)N3CCCC(C)C3)ccc2F)cc1OC (stereo not drawn) | 0.8
CC(C)CCNC(=O)c1c[nH]c2ccc(S(=O)(=O)N3CC(C)CC(C)C3)cc2c1=O (stereo not drawn) | 0.5
CCOC(=O)C(NS(=O)(=O)c1ccc(Br)cc1)C(C)C (stereo not drawn) | -0.33
O=C(O)c1ccc2c(c1)C(=O)N(c1ccc(N3C(=O)c4ccc(C(=O)O)cc4C3=O)c(Cl)c1)C2=O | 0.06
CC1CC(C)CN(C(=O)CC(C(=O)N2CCc3ccccc32)n2ccnc2)C1 (stereo not drawn) | 0.28
CN(C1CCCCC1)S(=O)(=O)c1ccc(F)c(C(=O)Nc2cccc(F)c2)c1 | -0.21
CCOc1cccc2cc(C(=O)NC(C)=O)c(=Nc3ccccc3OC)oc12 | -0.14
CCC(CC)C(=O)Nc1cccc(Br)c1 | 1.8
Cc1nn(CC(=O)NCC2CCCO2)c(C)c1[N+](=O)[O-] (stereo not drawn) | 1.1
Cc1ccc(O)c(NC(=O)CCCn2cnc([N+](=O)[O-])n2)c1 | 0.02
Cc1nc2c(ccc3nc(NC(=O)c4ccc(S(=O)(=O)N5CCCCC5C)cc4)sc32)s1 (stereo not drawn) | -0.12
O=C(Nc1cccc(C(F)(F)F)c1)c1cnc2n(c1=O)CCS2 | -1
CCOc1ccccc1NC(=O)CSc1nccn1-c1ccc(Cl)cc1 | -1.6
Cn1ncc([N+](=O)[O-])c1C(=O)Nc1ccc(Cl)cc1 | -0.75
Cc1ccc(C(=O)CC2(C(F)(F)F)NCCN2)cc1 | -0.63
CCOc1ccc(CNC(=O)C2CCC(=O)N2C2CCCCC2)cc1OC (stereo not drawn) | 1.1
CN(C)Cc1c(O)ccc2cc(-c3nc4ccccc4s3)c(=O)oc12 | 8.8
CC(=O)NC(=O)c1cc2cc([N+](=O)[O-])ccc2oc1=Nc1ccccc1C | -0.12
CCCC(C)C(=O)N(Cc1ccccc1)c1ccccn1 (stereo not drawn) | -1.6
CC(=O)c1cccc(N2COc3ccc(Cl)cc3C2)c1 | -2.2
CCOC(=O)c1c(CSc2ccc(Cl)cc2)n(C)c2cc(Br)c(O)cc12 | 1.2
O=C(C1CCC(CNS(=O)(=O)c2ccc(Cl)cc2)CC1)N1CCOCC1 (stereo not drawn) | 0.38
Cc1cccc(NC(=O)c2cc(N3CCCCC3)nc3ccccc23)c1 | 0.38
COc1cc(C(=O)Nc2nc3c(cc4c5c(cccc53)CC4)s2)cc(OC)c1OC | 0.98
COCC(C)NC(=O)c1cc(-c2cccc(Cl)c2)on1 (stereo not drawn) | -0.76
COC(=O)C(C)Oc1cc2oc(=O)c3c(c2cc1Cl)CCC3 (stereo not drawn) | 0.69
O=C(Nc1ccc(C(F)(F)F)cc1)c1cc2cc3ccc(Cl)cc3nc2o1 | -0.76
C=CCC1Nc2ccc(C)cc2C=C1c1ccc2cc(C)ccc2n1 (stereo not drawn) | 0.86
CCOC(=O)c1c(NC(=O)Cn2nc(C(F)(F)F)c3c2CCCC3)sc(C(C)=O)c1C | -1.4
O=C(NC(c1ccccc1)c1ccccc1)C(c1ccccc1)N1CCOCC1 (stereo not drawn) | -0.59
CC(C)Nc1ncnc2c1c(-c1ccccc1)cn2-c1ccccc1 | 0.43
C=CCN(CC=C)C(=O)c1cc2c(n(-c3ccccc3)c1=O)CC(C)(C)CC2=O | 0.45
O=C(NCc1ccco1)C1CCN(S(=O)(=O)c2cccnc2)CC1 | -0.15

Other results.
SMILES | Measles inh
COc1ccc(-c2noc(CCC(=O)NCCc3cccc(C)c3)n2)cc1 | -1.5
COc1ccc(C2C(C(=O)c3ccco3)=C(O)C(=O)N2c2nnc(C)s2)cc1OC (stereo not drawn) | -1.1
COc1ccc(C(=O)Nc2cccc(Oc3ccc4c(c3)C(=O)N(c3ccc(OC)cc3)C4=O)c2)cc1 | -0.55
CCOc1ccc(N2C(=O)CNC2=S)cc1 | 2
CCOc1ccc(C(=O)Nc2ccc(-c3nc4ccccc4[nH]3)cc2)cc1 | -2.1
CSC1=NCCN1C(=O)c1cccc(C)c1 | 0.22
CCOCCOC(=O)c1cccc2c1-c1ccccc1C2=O | 0.24
Cc1ccc(-n2cc3c(c2-c2ccccc2)c(=O)n(C)c(=O)n3C)c(C)c1 | 0.55
Cc1ccc(S(=O)(=O)C2(C(=O)Nc3ccc(C)c(Cl)c3)CC2)cc1 | -0.87
CCc1ccc(S(=O)(=O)N=C2C=C(Nc3ccccc3)C(=O)c3ccccc32)cc1 | 2.2
CCc1nc(NCCN(CC)CC)c(C#N)c2c1COC(C)(C)C2 | 1.1
CCOC(=O)c1sc2nc(C)n(CC(=O)N3CCCc4ccccc43)c(=O)c2c1C | 0.35
Cn1c(=O)c2cc(S(=O)(=O)N3CCN(c4ccccc4)CC3)ccc2n(C)c1=O | 0.15
CC1CCC(NC(=O)C2C3C=CC4(CN(Cc5ccccc5Cl)C(=O)C24)O3)CC1 (stereo not drawn) | -0.73
O=C(O)c1ccc(O)c(C=Nc2cccc(-c3nc4ccccc4o3)c2)c1 | 0.66

Some of the entries so far, as comma-separated lines:
structure,Measles inh
CCOc1ccc(N2C(=O)CNC2=S)cc1,2
O=C(O)c1ccc(O)c(C=Nc2cccc(-c3nc4ccccc4o3)c2)c1,0.66

The results go on.
SMILES | Measles inh
O=C(NCCN1CCOCC1)c1nn2c(c1Cl)NC(c1ccccc1)CC2C(F)(F)F (stereo not drawn) | -1.8
Cc1ccc(OCC(O)CN2CCN(c3ccccc3)CC2)cc1C (stereo not drawn) | -0.3
Nc1ccc(S(=O)(=O)c2cccc([N+](=O)[O-])c2)cc1[N+](=O)[O-] | 1.1
NC(=O)CN(Cc1ccccc1)S(=O)(=O)c1ccc(Br)cc1 | -0.06
CC1CCCCC1NC1CC(=O)N(c2ccccc2)C1=O (stereo not drawn) | -1.4
CN=C1CC(C)(C)CC(=O)/C1=C(/O)CCC(=O)OC | -0.37
COC(=O)c1c(NC(=O)CSc2nnc3cc(C)c4ccccc4n23)sc2c1CCC(C)C2 (stereo not drawn) | -1.4
O=C1C(=O)N(c2ccccn2)C(c2cccnc2)/C1=C(\O)c1cccc(Br)c1 (stereo not drawn) | -0.85
CC1SC2(CCCCC2)N(c2ccc(F)cc2)C1=O (stereo not drawn) | 0.51
COc1ccc2nc(NC(=O)NC34CC5CC(C3)CC(c3ccc(C)cc3)(C5)C4)sc2c1 | -0.47
O=C(NCCN1CCCC1)C1CCC(CNS(=O)(=O)c2ccc(Cl)cc2)CC1 (stereo not drawn) | 0.11
Cc1cc2c(cc1Br)-n1c(nc3ccccc3c1=O)C2=O | -0.78
CS(=O)(=O)CC1CC1(Cl)Cl (stereo not drawn) | 2.3
CCN(CC)CCC(=O)N1c2ccccc2Sc2ccc(C(F)(F)F)cc21 | -0.66
COc1ccc(CCC(=O)Nc2ccc(-c3noc(Cc4ccc(Cl)cc4)n3)cc2)cc1 | 0.08

Structures listed so far containing bromine:
SMILES | Measles inh
COc1ccc(-c2cc(C(=O)Nc3ccc(Br)c4cccnc34)c3ccccc3n2)cc1 | -1.8
CC(=O)c1ccc(NC(=NS(=O)(=O)c2ccc(Br)cc2)c2ccccc2)cc1 | -0.26
CCOC(=O)C(NS(=O)(=O)c1ccc(Br)cc1)C(C)C (stereo not drawn) | -0.33
CCC(CC)C(=O)Nc1cccc(Br)c1 | 1.8
CCOC(=O)c1c(CSc2ccc(Cl)cc2)n(C)c2cc(Br)c(O)cc12 | 1.2
NC(=O)CN(Cc1ccccc1)S(=O)(=O)c1ccc(Br)cc1 | -0.06
O=C1C(=O)N(c2ccccn2)C(c2cccnc2)/C1=C(\O)c1cccc(Br)c1 (stereo not drawn) | -0.85
Cc1cc2c(cc1Br)-n1c(nc3ccccc3c1=O)C2=O | -0.78

(listing goes on)
SMILES | Measles inh
COc1ccc(OC)c(C2C3=C(CCCC3=O)N(c3ccc([N+](=O)[O-])cc3)C(=N)/C2=C(/O)c2ccc(C)cc2)c1 (stereo not drawn) | -0.47
Cc1ccc(CN2C(=O)CN(C3CCC(C)CC3)C(=O)C2c2ccc(C)cc2)cc1 (stereo not drawn) | -0.74
CCCc1cc2c(=O)c(-c3ccccn3)coc2cc1OC | -0.15
COCCNC(=O)c1cc2c(n(-c3ccc(Cl)cc3)c1=O)CCCC2=O | 1.2
O=C(c1cccs1)N1CCN=C1SCc1cccc(C(F)(F)F)c1 | 1.3
O=C(CN(c1ccc(F)cc1)S(=O)(=O)c1ccccc1)Nc1ccc(S(=O)(=O)N2CCOCC2)cc1 | -0.57
Cn1nnnc1SCC(=O)N1CCc2ccccc2C1 | 1.1
COC(=O)c1cc2c(=O)n3ccccc3nc2n(CCN2CCOCC2)c1=N | -0.56
O=C1NC(=O)C2(CCCCC2)N1 | 0.29
O=C(O)c1ccc(Oc2ccc(N3C(=O)c4ccc([N+](=O)[O-])cc4C3=O)cc2)cc1 | -0.1
Cc1ccc2c(c1)N(CCC(=O)NC(C)c1ccccc1)C(=O)C(C)O2 (stereo not drawn) | -0.94
CC1(C)COCN1S(=O)(=O)c1ccc(C(=O)Nc2nnc(-c3ccc(Cl)s3)o2)cc1 | 0.7
CCOC(=O)Cc1ccc(N=Cc2ccc(N3CCOCC3)c([N+](=O)[O-])c2)cc1 | 0.41
CCOC(=O)c1c(NC(=O)C2CCCCC2C(=O)O)sc(C)c1-c1ccc(F)cc1 (stereo not drawn) | -0.24
COc1cc([N+](=O)[O-])cc(C=Nc2ccc(Cl)c(-c3nc4ccccc4o3)c2)c1O | 2.1
COC(=O)C1=C(C)NC(=S)NC1c1ccc(OC(=O)c2ccco2)cc1 (stereo not drawn) | 0.94
Cc1cc(OCC(=O)N(C)Cc2ccccc2)ccc1Cl | -0.91
COc1cc(NS(=O)(=O)c2ccc(Nc3nc(-c4ccc(Cl)cc4)cs3)cc2)nc(OC)n1 | 1
CC(=O)c1cccc(N2C(=O)c3ccc(Oc4cccc([N+](=O)[O-])c4)cc3C2=O)c1 | 0.09
CCOC(=O)Cc1nnc2c3ccccc3n(C)c2n1 | -0.92
O=C(Nc1cccc(OC(F)(F)F)c1)c1ccco1 | -0.51
CCC(=O)Nc1ccc(S(=O)(=O)Nc2cc(C)on2)cc1 | 3.1
Cc1cc(C)cc(C2CC(C)(O)CC(c3cc(C)cc(C)c3)S2)c1 (stereo not drawn) | -1.5
CC(C)(C)c1ccc(C(=O)Nc2cccc(N=Cc3ccc([N+](=O)[O-])cc3)c2)cc1 | 0.76
COc1cc2c(cc1OC)C(C(=O)NCCN(C)C)C(c1ccccc1F)N(C)C2=O (stereo not drawn) | -0.57
CCc1c(O)nc(SCC(=O)Nc2ccc(OC)cc2)n(C2CCCCC2)c1=O | 0.17
CC(C)(C)c1ccc(-c2nc3sc4c(c3c(=O)o2)CCC4)cc1 | 0.01
S=C1NCN(CCc2ccccc2)CN1c1ccccc1 | 0.08
Cc1cc(C)c(/C(O)=C2\C(=O)C(=O)N(c3ccccn3)C2c2cccnc2)c(C)c1 (stereo not drawn) | -0.83

Sorted by number of heavy atoms (highest first): part of the list above.
SMILES | Measles inh
CCOC(=O)c1sc2nc(C)n(CC(=O)N3CCCc4ccccc43)c(=O)c2c1C | 0.35
O=C(NC(c1ccccc1)c1ccccc1)C(c1ccccc1)N1CCOCC1 (stereo not drawn) | -0.59
CN1C(=O)N(C)C2(c3ccccc3)NN3C(=O)CSC3=NC12c1ccccc1 (stereo not drawn) | 1.8
COCCNC(=O)c1cc2c(n(-c3ccc(Cl)cc3)c1=O)CCCC2=O | 1.2
Cc1ccccc1OCC(=O)OCC(=O)c1ccccc1 | 1.3

Screening data (PubChem BioAssay)
